Bioassay records deposited in PubChem by several laboratories.
Mtb growth – M. tuberculosis H37Rv growth inhibitors, H37Rv strain (AID 1626); M. tuberculosis H37Rv growth inhibition; higher % means a stronger effect; inhibition, % at 10 µM, or IC50 in µM where a hit was titrated; 0.95% of 220,000 active;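 active = confirmed in a dose series; inconclusive = inhibition above 80% but not taken into the dose series; inactive = below 80% or under 30% at every dose of the series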;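 also: bacteria incubated seven days before Alamar blue readout; 0% = bacteria only wells and 100% = bacteria with antibiotic wells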
Mtb betalactam – beta-lactam sensitization of Mtb H37Rv, H37Rv; M. tuberculosis H37Rv growth with meropenem, percent inhibition; hits of this screen are not shown here; inhibition, % at 25 µM; 0.27% of 330,000 active;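 active = about 74% or more and at least 40 points above the plate without the antibiotic, then above 30% in a dose series; inconclusive = first-round hits that could not be retested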;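 also: growth measured after seven days incubation then overnight dye step; 0% = bacteria only wells and 100% = bacteria with antibiotic; twin plates without the antibiotic show which effects depend on it; some results filed as inactive read as strong as hits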
RecA splice inh – Mtb RecA intein splicing inhibitors, primary screen, biochemical, fluorescence, HTS; 0.75% of 290,000 active; inhibition, %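 (about 9 µM by stock and volumes)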; cell-free RecA intein splicing; Protein RecA (Mycobacterium tuberculosis (strain ATCC 25618 / H37Rv)), P9WHJ3; in the data active = inhibition above about 30%; inconclusive = no clear call, values can overlap the other calls;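 also: 0% = vehicle wells and 100% = reference inhibitor control wells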
Target sequence (P9WHJ3 whole entry, looked up, canonical isoform): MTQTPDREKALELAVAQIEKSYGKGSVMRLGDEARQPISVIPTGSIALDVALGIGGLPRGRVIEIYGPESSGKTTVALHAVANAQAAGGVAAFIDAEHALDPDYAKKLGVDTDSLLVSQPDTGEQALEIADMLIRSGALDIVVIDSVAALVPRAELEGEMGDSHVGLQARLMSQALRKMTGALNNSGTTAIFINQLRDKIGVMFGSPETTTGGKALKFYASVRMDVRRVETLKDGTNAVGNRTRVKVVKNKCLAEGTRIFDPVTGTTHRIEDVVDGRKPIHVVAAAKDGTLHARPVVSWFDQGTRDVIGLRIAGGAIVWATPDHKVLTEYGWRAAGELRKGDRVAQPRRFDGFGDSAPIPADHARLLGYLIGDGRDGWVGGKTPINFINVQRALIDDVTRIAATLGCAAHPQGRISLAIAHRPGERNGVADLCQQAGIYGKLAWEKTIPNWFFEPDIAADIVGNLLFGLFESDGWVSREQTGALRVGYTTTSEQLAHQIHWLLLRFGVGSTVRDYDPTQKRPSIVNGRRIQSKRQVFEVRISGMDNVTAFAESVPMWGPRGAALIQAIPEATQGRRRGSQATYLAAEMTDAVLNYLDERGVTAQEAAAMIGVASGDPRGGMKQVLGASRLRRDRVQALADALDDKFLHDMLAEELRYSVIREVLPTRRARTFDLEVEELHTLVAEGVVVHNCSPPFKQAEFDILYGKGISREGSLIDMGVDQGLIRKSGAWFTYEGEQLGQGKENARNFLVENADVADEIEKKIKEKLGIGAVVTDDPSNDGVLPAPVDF
Arbovirus inh – antivirals against arbovirus infection, primary screen, cell-based, full library, 10K replicate subset. AID 1251, 2008. inhibition, % at 10 µM. arbovirus infection cell-based antiviral screen. 0.37% of 200,000 active;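 active = inhibition from about 30%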;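 also: bluetongue infection of BSR cells; cell survival read as ATP light after 72 h; 0% = infected wells without compound and 100% = uninfected wells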
YopH PTP inh – YopH tyrosine phosphatase inhibitors, primary screen, biochemical, fluorescence Ex485/Em525; YopH tyrosine phosphatase [Yersinia enterocolitica]; inhibition, %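 (about 10 µM by stock and volumes)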; 0.16% of 140,000 active; AID 898, 2007;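 active = inhibition of 50% or more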;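 also: controls were vehicle for no effect and minimum signal wells for full effect; inactives centre near -20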
Arbovirus inh repeat – recorded beside Arbovirus inh, whose call it bears; inhibition, %; measured here: 10K subset replicate screen; many hits read low in the repeat;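 first of two repeat runs on a subset; 0% = infected and 100% = uninfected wells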
Starred values were filed as active, the others as inactive; ? = inconclusive; / = no result given. These rows are one share of the data; count on the stated rates, not on these rows.

SMILES	Mtb growth	Mtb betalactam	RecA splice inh	Arbovirus inh	YopH PTP inh	others
Cc1cccc(Oc2nc3c(c(=O)n(C)c(=O)n3C)n2C)c1	4%	18	3.2	4	/
C=C(C)CSc1nnc(-c2cc(OC)c(OC)c(OC)c2)n1N	-10%	-17	2.7	11	-7	Arbovirus inh repeat=3
COc1cc(C)nc(OCCNC(=O)COc2ccc(Cl)cc2C)n1	-15%	-22	-0.4	0	-32
CNC(=O)NCCN1CCCC1=O	-10%	-7	0.1	2	20
CC(C)(C)C1CCc2onc(C(=O)Nc3ccc4c(c3)OCO4)c2C1 (stereo not given)	/	5	-1.0	/	/
COc1ccc(CCOC(=O)c2ccc(NC(=O)CC#N)cc2)cc1	/	5	2.9	/	/
CC(C)(C)NC(=O)C(c1ccc(F)cc1)N(CC1CCCO1)C(=O)c1csnn1 (stereo not given)	/	-2	3.4	/	/
CC(=O)N1N=C(N)SC1(C)C	5%	-2	-1.1	5	/
Cc1ccc(NC(=S)N/N=C/c2ccc([N+](=O)[O-])s2)cc1	?	98	-8.5	-33	-23
O=C(CSc1ccc(Cl)cc1)N1CCN(c2ccc([N+](=O)[O-])cc2Cl)CC1	0%	67	17	11	-27
CC1(C(=O)N(c2ccccc2)C(C(=O)NC2CCCC2)c2ccccn2)CC(=O)N=C2C=CC=CN21 (stereo not given)	-2%	-7	/	11	-30
O=C(COc1cccc(Cl)c1)Nc1ccccc1N1CCCCC1	/	9	2.1	/	/
CCOc1ccc(NC(=O)CN(C)C(=O)CCCc2c[nH]c3ccccc23)cc1OCC	/	-9	-1.5	/	/
COc1ccc(COC(=O)c2ccc(Cl)c(S(=O)(=O)N3CCOCC3)c2)cc1F	/	-12	2.0	/	/
Cc1csc(=O)n1CCC(=O)OCC(=O)c1c(N)n(CC(C)C)c(=O)n(C)c1=O	/	-3	-2.5	/	/
Cc1ccc(C(=O)/C=C/c2c(C)nn(-c3ccccc3)c2Cl)cc1	/	/	3.0	15	2
N#CCSc1nc2c(cc1C#N)CCCC2	-10%	10	0.0	14	-39
CCCc1cc(C(=O)NNC(=S)Nc2cccc(C)c2)cs1	-2%	6	13	-9	-45
Cc1ccc(SCC(=O)Nc2ccccc2C(=O)N2CCOCC2)cc1	-2%	-11	-0.1	3	-18
Cc1ccccc1N/N=C/c1c(C)nc2ccccn12	/	96	-1.7	/	/
O=C(NC1CCCc2ccccc21)c1c(F)cccc1Cl (stereo not given)	/	-3	-0.1	/	/
COc1cc(C(=O)N=c2sc3ccccc3n2C)cc(OC)c1OC	3%	-9	1.2	-4	/
Cc1ccc(NC(=O)c2cccc(S(=O)(=O)NCc3ccccc3)c2)nc1	/	-8	0.0	/	/
CC1=C(C#N)C(=O)OC(C)(C)C1	17%	1	-2.9	9	-43
NC(=O)c1ccsc1NC(=O)Cc1ccc([N+](=O)[O-])cc1	10%	-9	-4.2	5	/
O=C(c1cc(-c2ccccn2)nc2ccccc12)N1CCN(c2ncccn2)CC1	-4%	5	2.0	-7	/
CCN(CC)CCn1c(SCC(=O)Nc2cccc(OC)c2)nc2c(sc3ccccc32)c1=O	2%	32	0.1	-8	/
Cc1ccc2[nH]c3c(N4CCCCCC4)ncnc3c2c1	/	/	2.7	-6	-50
O=c1oc2ccccc2c(O)c1C(c1ccc([N+](=O)[O-])cc1)c1c(O)c2ccccc2oc1=O	-3%	/	28	1	/
COc1cccc(NC(=O)c2ccc(-n3cnnn3)cc2)c1	/	5	2.9	/	/
COc1ccc(-c2cc(C(F)F)n3ncc(C(=O)Nc4cc(C)on4)c3n2)cc1	-2%	9	/	-7	/
O=C(COc1ccc2c3c(c(=O)oc2c1)CCCC3)N[C@@H](Cc1ccccc1)C(=O)O	/	-6	2.8	/	/
Cc1ccccc1C(=O)Nc1ccc(O)cc1C(=O)O	-10%	3	0.2	-3	/
Clc1ccc(-c2c[n+](Cc3ccc(Br)cc3)c3n2CCCCC3)cc1	/	0	2.4	/	/
CCn1c(CNc2cccc(Cl)c2)nnc1SCC(=O)OC1CCCCC1	/	100	5.9	0	-26
CCCCCOC(=O)NC1CCS(=O)(=O)C1 (stereo not given)	-9%	0	-1.7	4	/

Entries shown so far that contain a Cl atom (8):
SMILES	Mtb growth	Mtb betalactam	RecA splice inh	Arbovirus inh	YopH PTP inh	others
COc1cc(C)nc(OCCNC(=O)COc2ccc(Cl)cc2C)n1	-15%	-22	-0.4	0	-32
O=C(CSc1ccc(Cl)cc1)N1CCN(c2ccc([N+](=O)[O-])cc2Cl)CC1	0%	67	17	11	-27
O=C(COc1cccc(Cl)c1)Nc1ccccc1N1CCCCC1	/	9	2.1	/	/
COc1ccc(COC(=O)c2ccc(Cl)c(S(=O)(=O)N3CCOCC3)c2)cc1F	/	-12	2.0	/	/
Cc1ccc(C(=O)/C=C/c2c(C)nn(-c3ccccc3)c2Cl)cc1	/	/	3.0	15	2
O=C(NC1CCCc2ccccc21)c1c(F)cccc1Cl (stereo not given)	/	-3	-0.1	/	/
Clc1ccc(-c2c[n+](Cc3ccc(Br)cc3)c3n2CCCCC3)cc1	/	0	2.4	/	/
CCn1c(CNc2cccc(Cl)c2)nnc1SCC(=O)OC1CCCCC1	/	100	5.9	0	-26

(cont.)
SMILES	Mtb growth	Mtb betalactam	RecA splice inh	Arbovirus inh	YopH PTP inh	others
O=C(Nc1ccnn1C1CCN(Cc2cccc(OCCO)c2)CC1)C1CCOC1 (stereo not given)	/	-12	0.0	/	/
O=C(COc1ccc(Cl)cc1Cl)NCc1ccncc1	-1%	/	1.0	1	-1
Oc1c(Br)cccc1/C=N/c1ncn[nH]1	/	2	-3.2	/	/
Cn1nc(NC(=O)C2CCC2C(=O)O)c2c(F)cccc21 (stereo not given)	-13%	-5	1.6	/	/
O=C(c1ccc(F)cc1Cl)N1CCN(S(=O)(=O)c2cccs2)CC1	/	?	3.1	/	/
O=C(NCc1ccco1)c1ccc(Cl)c(S(=O)(=O)Nc2ccccc2)c1	9%	-8	4.5	-6	/
N#C/C(=C\c1ccc(-c2cccc(Cl)c2)o1)C(=O)Nc1cccc2cccnc12	-2%	22	2.2	-13	-11
O=C(N/N=C/c1c(O)n(Cc2ccco2)c(=O)[nH]c1=O)c1ccccc1O	-4%	14	25	/	/
CCC1CCCCN1CC(=O)c1c(C)[nH]c2ccc(OC)cc12 (stereo not given)	-8%	-6	5.8	/	/
Clc1ccccc1-c1ccc(/C=N/n2cnnc2)o1	-2%	6	2.9	0	0	Arbovirus inh repeat=-6
COc1ccc(C(=O)N2c3ccccc3C=CC2C#N)cc1 (stereo not given)	2%	0	6.2	2	-27
Cc1noc(C)c1S(=O)(=O)NCC(=O)O	15%	-9	/	16	-33

Arranged by molar mass (descending): part of the list above
SMILES	Mtb growth	Mtb betalactam	RecA splice inh	Arbovirus inh	YopH PTP inh	others
O=C(NCc1ccco1)c1ccc(Cl)c(S(=O)(=O)Nc2ccccc2)c1	9%	-8	4.5	-6	/
O=C(c1ccc(F)cc1Cl)N1CCN(S(=O)(=O)c2cccs2)CC1	/	?	3.1	/	/
O=C(COc1ccc(Cl)cc1Cl)NCc1ccncc1	-1%	/	1.0	1	-1

The listing picks up with the two entries that preceded the break.
SMILES	Mtb growth	Mtb betalactam	RecA splice inh	Arbovirus inh	YopH PTP inh	others
COc1ccc(C(=O)N2c3ccccc3C=CC2C#N)cc1 (stereo not given)	2%	0	6.2	2	-27
Cc1noc(C)c1S(=O)(=O)NCC(=O)O	15%	-9	/	16	-33
COCCn1c(Cc2ccccc2)nnc1SCC(=O)N1CCOCC1	0%	-8	-3.8	-4	/
Cc1ccc(C(=O)Nc2ccc(O)cc2C(=O)O)cc1	13%	23	-4.6	2	-48
CCOC(=O)c1cc(S(=O)(=O)N2CCc3ccccc32)cn1C	/	3	0.8	/	/
CCN1CCN(c2nc(Nc3cccc(F)c3)nc(N)c2[N+](=O)[O-])CC1	-6%	-6	2.4	/	/
COc1ccc(S(N)(=O)=O)cc1N(C)S(=O)(=O)c1ccccc1	4%	-1	1.5	5	/
Cc1ccc(-c2csc3ncnc(SCc4ccc(C(=O)O)cc4)c23)cc1	7%	-1	6.8	-12	/
COc1ccc(C)cc1S(=O)(=O)N1CCN(C(=O)c2ncoc2-c2ccccc2C)CC1	/	0	2.6	/	/
CC(C)S(=O)(=O)c1csc(C(=O)NN)c1Cl	-3%	0	-1.8	/	/
N=C1c2ccccc2CN1NC(=O)c1ccccc1	7%	-5	-1.1	-3	-18
CCC(=O)Nc1sc2c(c1C(N)=O)CCN(C(C)=O)C2	3%	-3	2.5	9	3	Arbovirus inh repeat=-1
O=C(c1ccc(N2CCCS2(=O)=O)cc1)N1CCN(c2ccc(F)cc2)CC1	/	3	0.7	/	/
O=C(NC(=S)Nc1ccc(CN2CCCCC2)cc1)c1ccco1	-6%	-6	4.5	1	/
CCN(CC)S(=O)(=O)c1cccc(C(=O)c2c(C)cc3ccccn23)c1	3%	/	8.7	5	-27
O=C(O)c1ccc(/C=N/Nc2cccc(C(F)(F)F)c2)cc1	?	95	/	-24	/
Cc1cc(OCC(=O)O/N=C(\N)c2ccccc2)ccc1Br	9%	2	0.0	9	-34
CCCN1Cc2cccc(C(=O)N3CCN(c4cc(Cl)ccc4C)CC3)c2C1=O	6%	-2	-4.0	47*	5	Arbovirus inh repeat=8.4*
Cc1cc(Oc2ccc(=O)n(C)n2)nc(SCC(N)=O)n1	-2%	4	2.9	/	/
COCCn1nnnc1C(c1ccccc1OC)N1CCN(c2ccccc2)CC1 (stereo not given)	3%	3	0.6	8	-6
Cc1ccc(Cl)cc1NC(=O)c1cccc(OC(F)F)c1	5%	-4	0.8	4	0
O=c1c(C=Nc2ccc(Oc3ccccc3)cc2)c[nH]n1-c1cccc(Cl)n1	>100µM*	99	0.7	-2	-34
O=c1cc(-c2cccc3ccccc23)[nH][nH]1	3%	-10	93*	2	-29
COc1ccc(CCN=C(N)NS(=O)(=O)c2cc(F)ccc2F)cc1	/	-1	0.2	/	/
Cc1cc(NC(=O)C2CC2)n(-c2nc3ccccc3s2)n1	59%	2	2.4	7	/
NC(=O)c1nn2c(C(F)(F)F)cc(-c3ccccc3)nc2c1Br	/	-2	-0.4	/	/

Brought forward from above: three compounds; new compounds follow.
SMILES	Mtb growth	Mtb betalactam	RecA splice inh	Arbovirus inh	YopH PTP inh	others
COc1ccc(CCN=C(N)NS(=O)(=O)c2cc(F)ccc2F)cc1	/	-1	0.2	/	/
Cc1cc(NC(=O)C2CC2)n(-c2nc3ccccc3s2)n1	59%	2	2.4	7	/
NC(=O)c1nn2c(C(F)(F)F)cc(-c3ccccc3)nc2c1Br	/	-2	-0.4	/	/
Cc1cc(NC(=O)COc2ccc(C)c(C)c2)no1	/	-4	-2.6	/	/
O=C(NNc1nc2cc3c(cc2s1)OCO3)c1cccc(F)c1	/	-2	-3.4	-6	-26
Cc1noc(C)c1N=Nc1ccccc1C(=O)O	-2%	-1	3.9	4	/
O=C(O)CC(NC(=O)c1ccco1)c1ccco1 (stereo not given)	/	-3	1.4	/	/
COc1cc(NC(=O)c2ccc3snnc3c2)cc(OC)c1	-1%	5	0.6	/	/
CN1CCCN(C(=O)COc2cccc(C(F)(F)F)c2)CC1	/	-11	0.2	/	/
